# Screens as filed in PubChem BioAssay.
# GLA inh pH 4.5 – alpha-galactosidase A (human) inhibition, pH 4.5. purified enzyme, 4-MU-alpha-Gal fluorescence, pH 4.5. P06280. 230,000 tested, under 10 active. activity change, negative = inhibition, % at 105 µM; inconclusive = small, poorly fitted or top-dose-only inhibition, or a rising curve; inactive = flat fitted curve, though single readings scatter; no compound was filed as active;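 also: 0% = full activity with enzyme and -100% = basal without enzyme; dose as in the result columns while the protocol names 77 µM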
# Target sequence (P06280 whole entry, looked up): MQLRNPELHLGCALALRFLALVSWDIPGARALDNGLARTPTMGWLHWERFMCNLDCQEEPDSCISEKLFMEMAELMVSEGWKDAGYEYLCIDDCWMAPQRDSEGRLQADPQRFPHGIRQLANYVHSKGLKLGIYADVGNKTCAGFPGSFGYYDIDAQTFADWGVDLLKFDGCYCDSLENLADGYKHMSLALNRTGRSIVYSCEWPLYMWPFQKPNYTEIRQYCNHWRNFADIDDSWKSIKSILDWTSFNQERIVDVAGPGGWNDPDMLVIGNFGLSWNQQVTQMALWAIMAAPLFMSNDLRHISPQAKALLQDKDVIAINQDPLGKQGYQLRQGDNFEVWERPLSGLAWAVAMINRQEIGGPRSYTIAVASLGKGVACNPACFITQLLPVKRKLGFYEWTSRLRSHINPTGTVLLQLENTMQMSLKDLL
# Starred values were filed as active, the others as inactive; ? = inconclusive; & = joins results of further samples. The list is partial; the hit share may differ from the screen's.
SMILES,GLA inh pH 4.5
Cc1cc(=O)oc2cc(O[C@@H]3O[C@H](C(=O)O)[C@@H](O)[C@H](O)[C@H]3O)ccc12,-1
Cc1c(C(=O)N(C)C2CCCCC2)sc2nc3ccc(N)cc3n12,-5
CC(N)(C(=O)O)c1ccc(C(=O)O)cc1 (stereo not given),-8
CC(=O)OC1CC2C(C)(C)C(O)CC(O)[C@@]2(C)C2CC[C@@]3(C)C(=CC(=O)OC3c3ccoc3)[C@]12C (stereo not given in full),-4
C[C@@H](Oc1ccc(Oc2cnc3ccc(Cl)cc3n2)cc1)C(=O)O,-11
COC(=O)c1ccc(C(/C=C/[C@@H](C)C(=O)N[C@H](C)CO)NC(=O)OCc2ccccc2)cc1 (stereo not given in full),1
COC(=O)N1C2=C(c3ccccc3[C@@H]1CC(=O)Nc1ccc3ccc4cccc5ccc1c3c45)[C@@H]1C(=O)N(c3ccccc3)C(=O)[C@@H]1[C@H](C)C2,2
C/C=C(\C)C(=O)OC1C(OC(=O)C2(C)OC2C)c2cc3ccc(=O)oc3cc2OC1(C)C (stereo not given),-3
CCn1ccnc1C[C@@H]1COc2ccccc2O1,-1
CC(=O)Oc1cc(OC(C)=O)c2c(=O)cc(-c3ccc(OC(C)=O)c(OC(C)=O)c3)oc2c1,-14
CCCCC/C=C\CC1OC1CCCCCCCC(=O)O (stereo not given),1
CCCCCCOc1ccccc1C(N)=O,-5
Cc1cc(O)c(C=O)c2c1C(=O)Oc1c(C)c(O)c3c(c1O2)C(O)OC3=O (stereo not given),-5
COC(=O)N[C@@H](/C=C/c1ccccc1)C[N+](=O)[O-],-1
O=C(c1ccc(C(F)(F)F)cc1)N1CCC(=O)N([C@H](COCc2ccc(Cl)cc2)Cc2ccccc2)CC1,-25
COC(=O)c1ccc(C(NC(=O)c2ccccc2)[C@]2(C)C[C@H]2C2CCCCC2)cc1 (stereo not given in full),-5
CCCCC(C)(C)[C@H](O)/C=C/[C@H]1[C@H](O)CC(=O)[C@@H]1C/C=C\CCCC(=O)O,-8
COc1cc(/C=C\C(=O)N2CCC=CC2=O)cc(OC)c1OC,13
CCCn1c(-c2ccc(F)cc2)nc2c(NC3CCN(Cc4ccccc4)CC3)nc(C)nc21,-17
CCCCC(C=O)NC(=O)C(CC(C)C)NC(=O)OCc1ccccc1 (stereo not given),-3

# Structural class: the compounds so far with a COOH group
SMILES,GLA inh pH 4.5
Cc1cc(=O)oc2cc(O[C@@H]3O[C@H](C(=O)O)[C@@H](O)[C@H](O)[C@H]3O)ccc12,-1
CC(N)(C(=O)O)c1ccc(C(=O)O)cc1 (stereo not given),-8
C[C@@H](Oc1ccc(Oc2cnc3ccc(Cl)cc3n2)cc1)C(=O)O,-11
CCCCC/C=C\CC1OC1CCCCCCCC(=O)O (stereo not given),1
CCCCC(C)(C)[C@H](O)/C=C/[C@H]1[C@H](O)CC(=O)[C@@H]1C/C=C\CCCC(=O)O,-8

# The main list resumes, repeating the 2 entries before the break.
SMILES,GLA inh pH 4.5
CCCn1c(-c2ccc(F)cc2)nc2c(NC3CCN(Cc4ccccc4)CC3)nc(C)nc21,-17
CCCCC(C=O)NC(=O)C(CC(C)C)NC(=O)OCc1ccccc1 (stereo not given),-3
COC(=O)C1(C(=O)OC)CC2=CC(CC2=O)Cc2ccccc2[C@@H]1C[N+](=O)[O-] (stereo not given in full),-1
CC(Nc1oc(-c2ccccc2)nc1-c1cccc2ccccc12)c1ccccc1 (stereo not given),-7
Cc1cc2nc3c(=O)[nH]c(=O)nc-3n(CC(O)C(O)C(O)COP(=O)(O)O)c2cc1C (stereo not given),-14
C=C1c2c(Cl)ccc(O)c2C(O)=C2C(=O)[C@@]3(O)C(O)=C(C(N)=O)C(=O)[C@@H](N(C)C)[C@@H]3[C@@H](O)[C@H]12,11
CC(C)CC1(C(=O)O)C=CCN1C(=O)c1ccccc1 (stereo not given),4
CN(C)C(=S)SC(=S)N(C)C,-5
CC(=O)OCC(=O)[C@@]1(O)CCC2C3CCC4=CC(=O)CC[C@]4(C)C3C(=O)C[C@]21C (stereo not given in full),0
CC[C@H](CC[C@@H](C)C1CC[C@H]2[C@@H]3CC=C4C[C@@H](O)CC[C@]4(C)[C@H]3CC[C@]12C)C(C)C (stereo not given in full),-1
Cc1cccc(C(=O)N2CCC(=O)N([C@H](COCc3ccc(Cl)cc3)Cc3ccccc3)CC2)c1,-2
CCC(C(=O)C(C)C(O)C(C)CCc1ccc(C)c(O)c1C(=O)O)C1OC(CC)(C2CC[C@@](O)(CC)C(C)O2)CC1C (stereo not given in full),0
COc1ccc(/C=C/c2cc(OC)c(OC)cc2CC[N+](C)(C)C)cc1,-3
COC(=O)Cn1c(C(=O)N(C)C)cc2c1C[C@H]1CN(C(=O)c3ccccc3)[C@@](Cc3ccc(F)cc3)(C(=O)OC)[C@@H]21,-1
C/C=C/C1=Cc2ccccc2C(CC(=O)OC)N1C(=O)OC (stereo not given),6
O=C(O)CN(CC(=O)O)Cc1cc2c(-c3ccccc3C(=O)O)c3cc(CN(CC(=O)O)CC(=O)O)c(=O)cc-3oc2cc1O,-1
COc1ccc2c(c1)C(c1ccccc1C)CC(=O)O2 (stereo not given),-14
CC(C)NC(=O)[C@H]1C[C@@H]1[C@H](NC(=O)OCc1ccccc1)c1ccccc1,-8
CC(C)(N=NC(C)(C)C(=N)N)C(=N)N,24
CC(CCC(=O)O)C1CCC2C3CC[C@@H]4CCCC[C@@]4(C)C3CC[C@@]12C (stereo not given in full),-3
Cc1noc(C)c1-c1nccc(NCc2cccnc2)n1,-9
OC[C@H]1O[C@@H](n2cnc3c(NCc4ccccc4)ncnc32)[C@H](O)[C@@H]1O,5
Nc1nc2c(ncn2C2OC(CO)CC2O)c(=O)[nH]1 (stereo not given),-12
CC(C(=O)O)C1CCC2C3CC=C4CC(O)CC[C@@]4(C)C3CC[C@]12C (stereo not given in full),2
CC[C@H]1C2=C3C(CC[C@H]4C(OCc5ccc(F)cc5C(F)(F)F)OC[C@](C)([C@@H]34)N(C(=O)OC(C)(C)C)C2)C(COC)C1COC (stereo not given in full),-13
COc1cccc(C(=O)CC2c3c(c(Br)c4c(c3OC)OCO4)CCN2C)c1 (stereo not given),-8
COC(=O)c1ccc(C(NC(=O)OCc2ccccc2)/C(F)=C/[C@@H](C)C(=O)NCCc2c[nH]c3ccc(OC)cc23)cc1 (stereo not given in full),-14
CC#CCN1c2ccccc2[C@]23C[C@@H](C(=O)OC)N(S(=O)(=O)c4ccc(Br)cc4)C2=NC(C(=O)OC)=C(C(=O)OC)[C@H]13,-2
CC(=O)Oc1c(-c2ccccc2)oc2c(CC=C(C)C)c3c(c(OC(C)=O)c2c1=O)C=CC(C)(C)O3,-2
CCN(CC)CCOc1ccc2c(c1)C(=O)c1cc(OCCN(CC)CC)ccc1-2,-6
COc1ccccc1-c1cncnc1-n1ccnc1,-6
C/C=C1/NN(CCCN2CCN(c3cccc(Cl)c3)CC2)C(=O)N1CCOc1ccccc1,-8
C[C@@](Cc1ccccc1)(NC(=O)CN)c1ccccc1,0
CCCn1c(-c2ccc(F)cc2)nc2c(NCCN(CC)CC)nc(C)nc21,-8
COC(=O)N1[C@H]2CC[C@@]3(C)C=C(C)O[C@]1(C)C3c1ccccc12,0
COC(=O)C1=C(C(=O)OC)[C@@H]2Nc3ccccc3[C@@]23C[C@@H](C(=O)OC)N(S(=O)(=O)c2c(C)noc2C)C3=N1,-1
CCC(CCC(C)C1CCC2C3CCC4CC(O)CC[C@@]4(C)C3CC[C@@]12C)C(C)C (stereo not given in full),-5
C=C(C(=O)C(C)(C)O)C(O)c1ccc([N+](=O)[O-])cc1 (stereo not given),-6
CC(C)(C)c1ccc(S(=O)(=O)/C=C\C#N)cc1,-3
C[C@H]1Cc2c(-c3ccccc3)nc3c(c2CO1)CN(S(=O)(=O)c1ccc(Cl)c2nonc12)CC3,11
COc1ccc2c(c1)C(=O)[C@@H](OC(=O)Nc1ccc(C)c(Br)c1)[C@H](c1ccc(OC)c(Br)c1)O2,0
Cc1cccc(CNc2ncnc3ccc(-c4c(C)noc4C)cc23)c1,-2
COC(=O)NC(C(=O)OC)(C(=O)OC)c1ccccc1,-5
O=C(NCCOc1ccccc1)O[C@@H]1C(=O)c2cc(Br)ccc2O[C@H]1c1ccc2c(c1)OCO2,1
CNC[C@H](O)c1ccc(OC(=O)C(C)(C)C)c(OC(=O)C(C)(C)C)c1,-3
CCCn1c(-c2ccc(F)cc2)nc2c(NCCN(C(C)C)C(C)C)nc(C)nc21,-22
Cc1onc(-c2c(Cl)cccc2Cl)c1C(=O)N[C@H]1C(=O)N2[C@H]1SC(C)(C)[C@H]2C(=O)O,-11
CC(C)CC(NC(=O)CN)C(=O)NC(Cc1ccccc1)C(=O)O (stereo not given),-2
CCCCCCNC(=O)n1cc(F)c(=O)[nH]c1=O,0
CN(C)Cc1ccccc1-c1cncnc1NC1CC1,-11
Cn1cnc2c(NC3CCCC3)ncnc21,-6
COc1cc(-c2coc3cc(OC)c(OC)c(OC)c3c2=O)cc(OC)c1OC,2
CC1CN(c2c(F)c(N)c3c(=O)c(C(=O)O)cn(C4CC4)c3c2F)CC(C)N1 (stereo not given),8
CCCn1c(C)nc2c(NCCCN(C)C)nc(C)nc21,3
CC(Oc1ccccc1)C(=O)NC1C(=O)N2C(C(=O)O)C(C)(C)S[C@@H]12 (stereo not given in full),5
CC1(C)O[C@@H]2C[C@H]3[C@H]4C[C@H](F)C5=CC(=O)C=C[C@@]5(C)[C@@H]4[C@H](O)C[C@]3(C)[C@]2(C(=O)CO)O1,7
COc1ccc2c(c1)O[C@@H](c1cccc(C(F)(F)F)c1)[C@H](OC(=O)NS(=O)(=O)c1ccc(C)cc1)C2=O,5
COC(=O)C1=C(C(=O)OC)[C@@H]2N(C)c3ccccc3[C@@]23C[C@@H](C(=O)OC)N(S(=O)(=O)c2ccc(C)cc2)C3=N1,5
CCCCC/C=C\C[C@H](O)/C=C/C=C/C=C/[C@@H](O)CCCC(=O)O,-2
CCC/C=C(\CCC)C(NC(=O)c1ccc(-c2ccccc2)cc1)c1ccc(C(=O)OC)cc1 (stereo not given),-4
CC#CCOC(=O)C1=CCCN(C)C1,-2
CCC1=C2CC[C@H]3C(=O)N(c4ccccc4)C(=O)[C@H]3[C@H]2[C@@]2(Cc3ccccc3)C(=NCCc3c[nH]c4ccccc34)OC(=O)N2C1=O,1
# (cont.)
SMILES,GLA inh pH 4.5
C=C[C@@]1(C)CC(=O)[C@@]2(O)[C@@]3(C)[C@@H](O)CCC(C)(C)[C@@H]3[C@H](OC(=O)CCN(C)C)[C@H](OC(C)=O)[C@@]2(C)O1,-4
COC(=O)C1(C(C)=O)CC2=CC[C@@H]3C(=O)N(c4ccccc4)C(=O)[C@@H]3[C@@H]2Cc2ccccc2[C@@H]1C[N+](=O)[O-] (stereo not given in full),-4
CN[C@@H]1[C@H](O[C@H]2[C@H](O[C@H]3[C@H](O)[C@@H](O)[C@H](N=C(N)N)[C@@H](O)[C@@H]3N=C(N)N)O[C@@H](C)[C@]2(O)C=O)O[C@@H](CO)[C@H](O)[C@H]1O,-4
C/C(=C\CO)CCC(C)CCCC(C)CCCC(C)C (stereo not given),-4
CC(C)(C)c1cc(C(=O)/C=C/c2ccc(C(=O)O)cc2)cc(C(C)(C)C)c1,-6
NCCC[C@@H](CC(=O)N[C@@H]1CCCC[C@H]1C(=O)N[C@H](CC(=O)N[C@@H](CCC(=O)O)CC(=O)O)Cc1ccccc1)NC(=O)C[C@H](Cc1ccccc1)NC(=O)[C@@H]1CCCC[C@H]1N,-3
N[C@@H](Cn1cc(F)c(=O)[nH]c1=O)C(=O)O,1
CC[C@H](C)C(=O)O[C@H]1CCC=C2C=C[C@H](C)[C@H](CC[C@@H]3C[C@H](O)CC(=O)O3)C21 (stereo not given in full),-2
N#C/C(=C\c1ccc(O)c(O)c1)C(=O)NCCCCc1ccccc1,?
NC(N)=NCCCC(NC(=O)C(N)Cc1ccc(O)cc1)C(=O)O (stereo not given),-9
CCCNC[C@H](O)COc1ccccc1C(=O)CCc1ccccc1,-2&-3
COC(=O)/C=C/C(C)=C/C=C/C(C)=C/C=C/C=C(C)/C=C/C=C(C)/C=C/C(=O)O,-21
COC(=O)[C@H](Cc1ccccc1)NC(=O)O[C@@H]1C(=O)c2cc(OC)ccc2O[C@H]1c1cccc(OC)c1,-8
O=C(O)c1ccc(B(O)O)cc1,-7
O=c1[nH]c(=O)n([C@@H]2O[C@H](CO)[C@@H](O)[C@H]2O)cc1Br,-6
O=C(/C=C\c1ccc(O)c(O)c1)O[C@@H]1C[C@](O)(C(=O)O)C[C@@H](O)[C@@H]1O,-4
O=C(O)CNC(=O)[C@@H](CS)Cc1ccccc1,4
O=C(O)c1ccc2c3c1cccc3c(=O)n1c3ccccc3nc21,-5
CC(C)C[C@@H](CC(=O)N[C@H](CC(=O)N[C@@H]1CCCC[C@H]1C(=O)N[C@H](CC(=O)N[C@@H](CCC(=O)O)CC(=O)O)Cc1c[nH]c2ccccc12)C(C)C)NC(=O)[C@@H]1CNCC[C@H]1N,-16
CCCCN1CCC(CCC(=O)c2cc(Cl)c(N)cc2OC)CC1,-7
CCCCCCCC/C=C\CCCCCCCC(=O)NCc1ccc(O)c(OC)c1,-17

# Quoted from the entries so far (3 entries):
SMILES,GLA inh pH 4.5
O=c1[nH]c(=O)n([C@@H]2O[C@H](CO)[C@@H](O)[C@H]2O)cc1Br,-6
O=C(/C=C\c1ccc(O)c(O)c1)O[C@@H]1C[C@](O)(C(=O)O)C[C@@H](O)[C@@H]1O,-4
O=C(O)CNC(=O)[C@@H](CS)Cc1ccccc1,4
